HPGD block: blocks human HPGD enzyme activity; P15428; purified HPGD, NADH fluorescence kinetic, PGE2 substrate; Potency, µM, inactives show at the top dose activity change, negative = inhibition, most hits filed as inhibitors; 4.3% of 150,000 active; active = well fitted inhibition curve with a large enough effect (not every such curve was filed as active); inconclusive = small, poorly fitted or top-dose-only effect, or another doubt; inactive = no such curve, though single readings can be large or run the other way;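 also: top concentration of the series not given in the record; plate controls included wells without enzyme; inactives centre near -10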
Target sequence (P15428 whole entry, looked up): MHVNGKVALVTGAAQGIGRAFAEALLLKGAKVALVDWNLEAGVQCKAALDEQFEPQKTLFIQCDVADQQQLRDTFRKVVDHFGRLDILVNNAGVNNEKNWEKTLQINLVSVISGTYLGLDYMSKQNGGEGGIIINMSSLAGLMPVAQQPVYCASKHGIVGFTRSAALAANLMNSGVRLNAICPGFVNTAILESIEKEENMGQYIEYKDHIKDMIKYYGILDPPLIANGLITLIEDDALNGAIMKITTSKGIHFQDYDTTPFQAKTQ
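20 nM HPGD preincubated 15 min at room temperature with compound in 50 mM Tris-HCl pH 8, 0.01% Tween 20. Started with 1 mM NAD+ and 30 uM prostaglandin E2; NADH fluorescence (360/450 nm) read 5 times over 30-s intervals, last minus first.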
Starred values were filed as active, the others as inactive; ? = inconclusive; & = joins results of further samples. % is scaled to controls: 0 for no effect and ±100 for the full control effect; potency is read from the fitted curve at half-maximal effect. These rows are one share of the data, so the mix of outcomes need not match the whole.

smiles | HPGD block
CCC(NC(=O)CCCc1ccccc1)c1ccccc1 (configuration not stated) | -7%
COc1cc(NC(=O)c2cccc3c2C(=O)N(Cc2cccnc2)C3)cc(OC)c1OC | -6%
Cc1ccc(/C(N)=N/OC(=O)c2cccs2)cc1 | -9%
COc1ccc(C(O)c2nccn2Cc2ccccc2)cc1 (configuration not stated) | -2%
C=CCNC(=S)Nc1ccc(Br)cc1F | -6%
CS(=O)(=O)N1CCCC(C(=O)NCCCN2CCC(Cc3ccccc3)CC2)C1 (configuration not stated) | -7%
Oc1ccc(CN2CCCc3ccccc32)c2cccnc12 | -9%
Cc1ccc(C(=O)NNc2cc(N3CCCC3)nc(N3CCCC3)n2)cc1 | 0%
O=C(Cn1c(C(F)(F)F)nc2ccccc21)c1ccc(Br)cc1 | -8%
CCOc1ccc(Nc2c3c(nc4ncnn24)CC(C)CC3)cc1 (configuration not stated) | -11%
Cc1ccc(-n2c(SCC(=O)NCCN3C(=O)CSC3=O)nnc2-c2cccc(C)c2)cc1 | 1%
CC(C)Oc1ccc(/C(O)=C2/C(=O)C(=O)N(CCN(C)C)C2c2cccs2)cc1 (configuration not stated) | -8%
O=C(NC1CCCC1)C(c1ccco1)N(Cc1ccccc1)C(=O)c1csnn1 (configuration not stated) | -6%
O=C1CC(c2ccc(F)cc2)Sc2nc(C34CC5CC(CC(C5)C3)C4)nn21 (configuration not stated) | -15%
Cc1ccc(CNC(=O)C2CCCN(C(=O)N(C)C)C2)cc1 (configuration not stated) | -6%

4 compounds drawn at random from those above:
smiles | HPGD block
Oc1ccc(CN2CCCc3ccccc32)c2cccnc12 | -9%
Cc1ccc(/C(N)=N/OC(=O)c2cccs2)cc1 | -9%
CCOc1ccc(Nc2c3c(nc4ncnn24)CC(C)CC3)cc1 (configuration not stated) | -11%
Cc1ccc(CNC(=O)C2CCCN(C(=O)N(C)C)C2)cc1 (configuration not stated) | -6%

As entered above:
CC(C)Oc1ccc(/C(O)=C2/C(=O)C(=O)N(CCN(C)C)C2c2cccs2)cc1 (configuration not stated) | HPGD block = -8%
C=CCNC(=S)Nc1ccc(Br)cc1F | HPGD block = -6%

(further entries)
smiles | HPGD block
COc1ccc(CC(=O)NC2=NCCS2)cc1 | -5%
Cc1ccc(-c2ccc(CCC(=O)O)n2CC2CCCO2)cc1 (configuration not stated) | ?
COCCNC(=O)c1c[nH]c2ccc(S(=O)(=O)N3CCC4(CC3)OCCO4)cc2c1=O | ?
CCOc1ccc(-n2c(C)nc3c(cnn3-c3ccc(Cl)cc3)c2=O)cc1 | -11%
CCC1=C2CC[C@H]3C(=O)N(c4ccccc4)C(=O)[C@H]3[C@H]2[C@@]2(Cc3ccccc3)C(=NCCOC)OC(=O)N2C1=O | -14%
CC1=NN(c2ccccc2)C(=O)/C1=C\N1CC(C)OC(C)C1 (configuration not stated) | -2%
CCOC(=O)c1nc(N)c(=O)n(-c2ccccc2)n1 | -8%
Cc1nc2ccccc2n1/C(=N/S(=O)(=O)c1ccc(Br)cc1)c1ccccc1 | -11%
O=S(O)O.O=S(O)O.[Co].[NH2-].[NH2-].[NH2-].[NH2-] | 0%
CC(C)Sc1nc(NCc2ccco2)c2c3c(sc2n1)COC(C)(C)C3 | ?
O=C(CSc1nc2ccccc2s1)N1CCOCC1 | -28%
COc1cccc(CNc2ccc(Br)cn2)c1O | -18%
O=C(CN1CCOCC1)OCCCC1CCCCC1 | -8%
CCOC(=O)C1C(c2ccc3c(c2)OCO3)NC(=O)NC1(O)C(F)(F)F (configuration not stated) | -8%
CCn1nc2cc(C(=O)NCCc3cccs3)ccc2c1OC | ?
CC1Cc2nc(SCC(=O)NCc3ccco3)n(Cc3ccccc3)c(=O)c2S1 (configuration not stated) | -1%
CN(CC(=O)Nc1ccc(S(=O)(=O)N2CCCC2)cc1)Cc1ccc(Cl)cc1 | -6%
O=C1c2cccc3c([N+](=O)[O-])ccc(c23)C(=O)N1c1ccccn1 | 28µM*
Cn1c(SCC(=O)Nc2nccs2)nnc1-c1ccncc1 | -12%
CCOC(=O)c1c(C)n(C)c2ccc(OC)c(NC(=O)CN3CCCCC3)c12 | -12%
CC(=O)N1N=C(c2ccc(Cl)cc2)OC1(C)C | ?
COc1ccc(C2C(C(C)=O)=C(O)C(=O)N2Cc2cccnc2)cc1 (configuration not stated) | -24%
COc1ccc(CN=C2NC(=O)CC(C(=O)Nc3ccc([N+](=O)[O-])cc3C)S2)cc1 (configuration not stated) | -4%
COc1ccc(/C=C2/CCc3ccccc3C2=O)cc1CN1CCOCC1 | -23%
C#CC(CC)(CC)NC(=S)Nc1ccc(S(N)(=O)=O)cc1 | -13%
CCOc1cc(S(=O)(=O)NC2CCCC2)ccc1Cl | -15%
COc1cc(NC(=O)CSc2nnc3n2C(C)(C)Cc2ccccc2-3)cc(OC)c1 | -4%
COc1ccc(NC(=O)Nc2ccc3nccnc3c2)cc1 | -5%
Cc1cccc(C(=O)Nc2cccc(-c3cnc4ccccc4n3)c2)c1 | -12%
O=C(c1ccco1)N(Cc1cccs1)C1CCS(=O)(=O)C1 (configuration not stated) | -6%
O=C(OCN1C(=O)c2ccccc2C1=O)C1CCCCC1 | -25%
COc1ccc(NC(=O)CCCC2=NS(=O)(=O)c3ccccc3N2)cc1 | -3%
O=S1(=O)NC(=NC2CCCCCC2)c2ccccc21 | -14%
COC(=O)N1CCC2(CC1)CN(C(=O)Nc1ccccc1)C2 | -13%
Cc1ccc(/C=C/C(=O)N2CCc3ccccc3C2)cc1 | 14µM*
CN(C)CCN(Cc1ccccc1)c1ccnc(N(C)C)c1C#N | -14%
COc1cc2c(cc1OC)C(COc1ccc3c(C)cc(=O)oc3c1)N(C(=O)c1ccco1)CC2 (configuration not stated) | ?
COc1cccc(-c2noc(-c3cccs3)n2)c1 | -9%
CS(=O)(=O)Nc1ccc2c(c1)C(=O)OC2 | -9%
c1cncc(-c2ccnc3ncnn23)c1 | -11%
O=C(Cn1cnc2cc(Cl)ccc2c1=O)Nc1ccc2c(c1)OCO2 | -14%
CCOc1ccc(Cl)cc1/C=N/NC(=O)CNC(=O)c1ccccc1 | -10%
COC(=O)CCC(=O)OC1(C)C(=O)C=C2C=C(c3ccc(C#N)cc3)OC=C2C1=O (configuration not stated) | -8%&-9%
N#CCCn1c(-c2nonc2NC(=O)c2ccccc2Cl)nc2ccccc21 | ?
CCCOc1ccccc1N/C(=N/c1nc(C)cc(C)n1)NC(=O)COc1ccc(OC)cc1 | -15%

Structures listed above that bear a hit mark in HPGD block:
smiles | HPGD block
O=C1c2cccc3c([N+](=O)[O-])ccc(c23)C(=O)N1c1ccccn1 | 28µM*
Cc1ccc(/C=C/C(=O)N2CCc3ccccc3C2)cc1 | 14µM*

The results go on:
smiles | HPGD block
Cc1ccc(C)c(Cn2nnc3c(=O)[nH]c(C(=O)NCc4ccco4)nc32)c1 | 0.56µM*
Cc1cc(C)nc(NS(=O)(=O)c2ccc(N)cc2)n1 | -8%&-1%&-9%&1%
Cc1cnc(NC(=O)c2cc3c(C)nn(Cc4ccccc4Cl)c3s2)s1 | ?
CN1C(=O)c2oc3ccc(Br)cc3c(=O)c2C1c1ccncc1 (configuration not stated) | ?
CC(=O)OCCNc1cc(Sc2nc3ccccc3[nH]2)c2nonc2c1[N+](=O)[O-] | 3.2µM*
O=C(N/N=C/c1ccccc1)NC1CCCCC1 | -20%
Cc1c(Cl)cccc1NC(=O)c1cccc(OC(F)F)c1 | -20%
COc1ccc(-c2cn3cccnc3n2)cc1NC(=O)CC(C)C | ?
COc1ccc(C2=Nn3c(nnc3-c3ccccc3OC)SC2)cc1OC | -11%
Cc1ccccc1C(=O)Nc1ccc(N2CCOCC2)nc1 | -6%
O=C1C2C(c3ccccc3)C=CC(c3ccccc3)C2C(=O)N1C1CCCCC1 (configuration not stated) | -16%
COc1cc(NC(=O)c2cccs2)c(C(=O)OCC(=O)NC(=O)NC(C)(C)C)cc1OC | -28%
O=P(O)(O)O[C@@H]1[C@H](O)[C@H](O)[C@@H](OP(=O)(O)O)[C@H](OP(=O)(O)O)[C@H]1O | 0%
O=C(Cn1cnc2ccccc2c1=O)c1ccccc1 | -7%
Cc1nc2cccc(C(=O)NC3CCCCC3)c2o1 | -12%
COC(=O)c1ccc(-n2cncn2)c(F)c1 | -9%
Cc1cccc(CSc2cccc3cccnc23)c1 | ?
Cc1ccc(N2C(=O)C(Cl)=C(N3CCOCC3)C2=O)cc1Cl | -12%
O=C(Cc1ccccc1)NNC1CC(=O)N(c2ccc(Br)cc2)C1=O (configuration not stated) | -7%
O=C(CSc1nc2ccccc2s1)N1c2ccccc2Sc2ccccc21 | -11%
CCn1cc(C(=O)NCc2cccs2)c(=O)c2ccc(C)nc21 | -28%
CCCCSCc1ccc(C(=O)O)o1 | -8%
COc1cc(-c2nn3c(-c4cccc(C)c4)nnc3s2)cc(OC)c1OC | ?
COc1cc(N2CCCC2)c(OC)cc1/C=C1/NC(=S)NC1=O | -5%
Cc1cccc2cc(CN(Cc3ccccc3)C(=O)N(C)C)c(=O)[nH]c12 | -6%
CCOc1ncccc1C(=O)OCc1cn2cc(Cl)ccc2n1 | -6%
O=c1c2c(ncn2C2CCCC2)n(Cc2ccccc2)c(=O)n1CCOc1ccccc1 | -19%
N#Cc1c(NC(=O)c2cccnc2)sc2c1CCC2 | -2%
O=C(Oc1ccccc1)c1cccc(COC(=O)c2cnccn2)c1 | -16%
O=C(O)CCC(=O)OC[C@@H](NC(=O)C(Cl)Cl)C(O)c1ccc([N+](=O)[O-])cc1 (some centres not stated) | -2%
CCOc1cc(-c2c(C#N)c(N)nc3c2CCCC3C)ccc1O (configuration not stated) | -5%
O=C(c1ccc(Cl)cc1)c1coc2ccc(O)cc12 | -12%
CCNC(=O)CN1C(=O)NC2(CCCCCC2)C1=O | -12%
CC(C)OC(=O)C1=C(N)N2C(=O)CSC2=C(C(=O)OC(C)C)C1 | ?
O=C(CN1CCN(S(=O)(=O)c2ccc(Cl)s2)CC1)NCc1ccc(Cl)cc1 | -4%
COC(=O)/C=C1\S/C(=N/N=C/c2ccccc2)NC1=O | 25µM*
CCOC(=O)N1CCN(C(=O)Nc2ccc(Cl)cc2)CC1 | 2%
C=C1CCC2C(CC2(C)C)C(=O)CCC1O (configuration not stated) | -13%
Cc1cccc(N2C(=O)CN(Cc3sccc3C)C2=S)c1 | 14µM*
O=C1c2oc3ccccc3c(=O)c2C(c2cccc(O)c2)N1c1ccccn1 (configuration not stated) | -4%
Cc1ccccc1C(=O)NC(=S)Nc1ccc(S(=O)(=O)N2CCN(C)CC2)cc1 | ?
Cn1c(=O)c2c(nc(N3CCOCC3)n2CCSc2ncccn2)n(C)c1=O | -10%
Cc1c(NC(=O)CSc2nccn2C)c(=O)n(-c2ccccc2)n1C | -2%
COc1cccc(/C=N\NC(=O)C2C(=O)NCC2c2ccccc2)c1O (configuration not stated) | -13%
COCCCn1c(SCC(N)=O)nnc1-c1ccccc1 | -5%
COc1ccc(C(=O)NCC(C)C)c(OC)c1 | -13%
COc1ccccc1/C=C1\SC(=S)N(CCC(=O)NC2=NCCS2)C1=O | -19%
CCc1cccc(CC)c1NC(=S)NCc1ccc2c(c1)OCO2 | -9%
c1ccc(-c2nc(N3CCCCC3)nc3ccccc23)cc1 | ?
O=C(CCCSc1nnnn1-c1ccccc1)c1ccc(F)cc1 | -16%
CCn1c(C)c(C(C)=O)c(SC)nc1=S | -17%
O=C(NCC(c1cccnc1)N1CCOCC1)c1cccs1 (configuration not stated) | -12%
COc1cccc(-n2c(SCC(=O)Nc3cc(C)on3)nc3ccccc3c2=O)c1 | -4%
CCCCCCCC(=O)N/N=C/c1cccnc1 | -3%
COc1cc(OC)c(NC(=O)CCNC(=O)Cn2ccc3ccccc3c2=O)cc1Cl | -17%
CC(C)CCNC(=O)CCn1nc(-c2ccccc2)ccc1=O | -7%
COc1ccccc1N1CCN(Cc2nc3ccsc3c(=O)[nH]2)CC1 | 0%
CCN(CC)S(=O)(=O)c1ccc(C)c(NC(=O)COc2ccc3c(C)cc(=O)oc3c2)c1 | ?
Cc1cc(C)cc(OCC(=O)OCC(=O)Nc2ccc(Cl)cn2)c1 | -10%
C[N+](C)(C)CCCC(=O)c1ccc2c(c1)OCO2 | -17%

(continued)
smiles | HPGD block
CSc1nc(C)c(Cl)c(C)c1C#N | -2%
O=C(NCCCn1ccnc1)c1cc(C2CC2)on1 | -6%
CC(C)CN(CC#N)CC(C)C | -9%
O=C(OC(C(=O)NC1CCCC1)c1ccncc1)C1=Cc2ccccc2OC1 (configuration not stated) | -13%
COc1ccc(C(=O)/C=C/c2cc(OC)c(O)c(OC)c2)c(F)c1 | 14µM*
C[C@@H](CN(C)C)CN1c2ccccc2Sc2ccccc21 | 1%
CCCCS(=N)(=O)CC[C@H](N)C(=O)O (some centres not stated) | 6%
Cc1ccc(NC(=O)C2CCCN2C(=O)Oc2ccccc2)cc1 (configuration not stated) | -7%

3 compounds already listed, arranged by the value under HPGD block, largest number first.
smiles	HPGD block
CCCCS(=N)(=O)CC[C@H](N)C(=O)O (some centres not stated)	6%
O=C(NCCCn1ccnc1)c1cc(C2CC2)on1	-6%
O=C(OC(C(=O)NC1CCCC1)c1ccncc1)C1=Cc2ccccc2OC1 (configuration not stated)	-13%

High-throughput results: PubChem BioAssay, National Center for Advancing Translational Sciences (NCATS)
